# Source: PubChem
# PKD1 inh – PKD1 (human) kinase inhibition; PKD1 kinase fluorescence polarization assay; inhibition, %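 (about 10 µM by stock and volumes)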; hit rate 0.056% among 200,000;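 active = inhibition of 50% or more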;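 also: controls were vehicle for no effect and a reference inhibitor for full effect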
# Insulin prom inh – TRM-6 insulin promoter activity inhibition. TRM-6 cells (human fetal islet line), insulin promoter-eGFP reporter, imaging; reporter expression induced with tamoxifen. hit rate 0.9% among 130,000. inhibition, % at 2 µM;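 active = inhibition above the mean plus 3 SD, with well images judged a real hit on visual review, cut at about 60% in these data, passing the limit was not always enough; inconclusive = inhibition over the cutoff but images rejected on review; inactive = inhibition not above the cutoff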
# RGS16-Gao HTS – modulates binding between human RGS16 and Galphao; hit rate 0.38% among 220,000; binding response (% of control), % at 10 µM; AID 1441; O15492+P09471; bead-based flow cytometry RGS16-Galphao binding, fluorescence; actives lie on both sides;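 active = below 25% or above 175%, edge rows of some plates excepted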;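 also: Galphao activated by GDP with aluminum fluoride before binding; 100% = wells without compound and 0% = beads without RGS; some results beyond the cut were filed as inactive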
# Target sequence (O15492 whole entry, looked up): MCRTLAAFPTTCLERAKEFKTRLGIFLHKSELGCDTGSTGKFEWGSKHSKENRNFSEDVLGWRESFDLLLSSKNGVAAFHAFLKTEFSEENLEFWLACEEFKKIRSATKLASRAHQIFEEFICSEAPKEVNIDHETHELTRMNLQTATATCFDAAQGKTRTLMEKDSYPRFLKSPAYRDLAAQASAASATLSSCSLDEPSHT
# Target sequence (P09471 whole entry, looked up): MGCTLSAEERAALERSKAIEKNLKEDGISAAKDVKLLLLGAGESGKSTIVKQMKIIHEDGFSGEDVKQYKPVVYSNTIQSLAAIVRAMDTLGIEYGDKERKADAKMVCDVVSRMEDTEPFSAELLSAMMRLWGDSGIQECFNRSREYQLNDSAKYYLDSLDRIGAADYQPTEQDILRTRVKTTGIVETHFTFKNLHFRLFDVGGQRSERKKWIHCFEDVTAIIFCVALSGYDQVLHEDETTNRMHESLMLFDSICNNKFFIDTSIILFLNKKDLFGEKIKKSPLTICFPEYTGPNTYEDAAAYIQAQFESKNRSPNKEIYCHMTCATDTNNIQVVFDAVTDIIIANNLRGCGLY
# GALR2 agonist – agonists of human galanin receptor 2 (GALR2) | O43603 | GALR2-expressing cells, agonist activation read-out | activation, %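 (tested at 5 µM)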 | hit rate 0.48% among 140,000;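 active = above mean plus 3 SD of all compounds, about 5% in these data, not always enough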;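 also: 0% = vehicle buffer wells and 100% = reference agonist at full effect; tested in CHO reporter cells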
# Target sequence (O43603 whole entry, looked up): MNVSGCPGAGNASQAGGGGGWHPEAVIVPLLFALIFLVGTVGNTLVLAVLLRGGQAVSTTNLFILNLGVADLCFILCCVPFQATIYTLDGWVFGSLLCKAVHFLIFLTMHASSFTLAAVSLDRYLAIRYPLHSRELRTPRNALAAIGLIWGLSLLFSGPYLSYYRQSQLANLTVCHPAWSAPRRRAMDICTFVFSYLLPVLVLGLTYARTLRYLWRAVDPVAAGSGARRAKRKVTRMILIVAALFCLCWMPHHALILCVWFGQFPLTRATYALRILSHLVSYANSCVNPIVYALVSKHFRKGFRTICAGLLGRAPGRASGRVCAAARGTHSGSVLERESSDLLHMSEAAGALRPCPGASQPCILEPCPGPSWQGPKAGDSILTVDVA
# HSV replic up – increases HSV replication in cells. HSV replication augmentation in cells, fold increase. maximum fold increase. hit rate 0.005% among 220,000. AID 1956;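 active = peak rise of 1.5-fold or more in the series; inconclusive = self-fluorescent or not available for retest; tested in PC3 cells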;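 also: first round at 10 µM; read as green reporter fluorescence; hits show the peak of a series up to 25 µM; 1 = signal of infected wells without compound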
# Insulin prom inh cell count – further read-out of Insulin prom inh, marked with its call; normalized cell count, %; measured here: cell count, toxicity; reference of the scale not given here;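 cells exposed to compound for 48 h; stained nuclei by imaging scaled within each plate; lower means fewer cells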
# HSV replic up primary fold – recorded beside HSV replic up, whose call it bears; fold increase; compound at 10 µM; measured here: primary screen fold increase 10 uM; tested in PC3 cells;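 GFP signal in the first replicate; 1 = infected wells without compound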
# Numbers without * were called inactive; i = inactive; ? = inconclusive; nt = not tested or not shown; & = joins results of further samples.
SMILES,PKD1 inh,Insulin prom inh,Insulin prom inh cell count,RGS16-Gao HTS,GALR2 agonist,HSV replic up,HSV replic up primary fold
O=S(=O)(Nc1ccc2c(c1)OCCO2)c1cccs1,1,-19,86,99,-0.7,i,0.73
Clc1ccc(C2CC(c3cccs3)n3ncnc3N2)cc1 (configuration not stated),nt,nt,nt,98,nt,i,0.94
N#C/C=C(/N)N1CCN(c2ccc(Cl)c(Cl)c2)CC1,1,3,91,104,-2.6,i,1
CCOc1ccc(-c2n[nH]c(C)c2Oc2ccccc2OC)c(O)c1,-3,0,51,72,-0.7,i,1.1
CCCCSc1nnc(-c2ccccc2N)c(=O)[nH]1,-4,nt,nt,102,-2.2,i,0.89
C/C=C\C=C/C(=O)Nc1cccc(C2=NOC3(C2)C[C@H](C(N)=O)N(C(=O)c2ccc(OC)cc2)C3)c1 (some centres not stated),nt,nt,nt,92,nt,i,0.79
CCOc1ccc(NC(=O)CN2CCN(C3c4ccccc4-c4ccccc43)CC2)cc1,0,9,106,133,-2.5,i,0.83
COc1ccc(Nc2oc(-c3ccc(Cl)cc3)nc2C#N)cc1,0,-37,207,96,2.0,i,0.67
CC1(C)CC(CC(=O)Nc2nccs2)(c2ccccc2)CCO1 (configuration not stated),-7,nt,nt,101,-1.4,i,1
O=C(CSc1ccc(Cl)cc1)c1ccco1,1,29,75,95,-3.8,i,0.9
COCc1nn2c(N)c(C#N)cnc2c1-c1ccccc1,-4,-362,88,93,-2.0,i,0.95
Cc1ccc(C(=O)Nc2ccccc2-c2ccccc2)cc1S(=O)(=O)Nc1cccc(C)c1C,-6,nt,nt,15,-1.8,i,1.1
O=C(CCNC(=O)c1ccccc1Cl)Nc1ccc2c(c1)OCO2,-3,19,77,102,-1.9,i,0.78
COc1ccccc1CC(=O)Nc1cccc2c1CCCC2,-10,-8,123,97,-2.2,nt,nt
C/C(N)=C(/C#N)C(=O)CSc1nnnn1-c1ccc(C)cc1C,-7,nt,nt,102,-2.8,i,0.98
CCOC(=O)c1c[nH]c2c3c(ccc2c1=O)CCCC3,-5,nt,nt,103,-1.5,i,0.83
CCCC(=O)Nc1sc(C)c(-c2ccc(C(C)CC)cc2)c1C#N (configuration not stated),-5,14,131,105,-0.6,i,1.3
CCc1nc2ccccc2c(=O)n1NC(=O)c1c(O)c2ccccc2[nH]c1=O,5,nt,nt,86,-0.8,i,0.9
Nc1ncc([N+](=O)[O-])c(Oc2ccccc2F)n1,nt,nt,nt,114,nt,i,0.99
CCOc1ccccc1N(C(=O)Nc1ccc(Cl)cc1)C1=NCCS1,3,nt,nt,178,-1.8,i,1.2

# 4 entries from above in a different format.
> Clc1ccc(C2CC(c3cccs3)n3ncnc3N2)cc1 (configuration not stated)
  PKD1 inh = nt; Insulin prom inh = nt; Insulin prom inh cell count = nt; RGS16-Gao HTS = 98; GALR2 agonist = nt; HSV replic up = i; HSV replic up primary fold = 0.94

> N#C/C=C(/N)N1CCN(c2ccc(Cl)c(Cl)c2)CC1
  PKD1 inh = 1; Insulin prom inh = 3; Insulin prom inh cell count = 91; RGS16-Gao HTS = 104; GALR2 agonist = -2.6; HSV replic up = i; HSV replic up primary fold = 1

> CCOc1ccc(-c2n[nH]c(C)c2Oc2ccccc2OC)c(O)c1
  PKD1 inh = -3; Insulin prom inh = 0; Insulin prom inh cell count = 51; RGS16-Gao HTS = 72; GALR2 agonist = -0.7; HSV replic up = i; HSV replic up primary fold = 1.1

> CCCCSc1nnc(-c2ccccc2N)c(=O)[nH]1
  PKD1 inh = -4; Insulin prom inh = nt; Insulin prom inh cell count = nt; RGS16-Gao HTS = 102; GALR2 agonist = -2.2; HSV replic up = i; HSV replic up primary fold = 0.89

# Further records follow:
SMILES,PKD1 inh,Insulin prom inh,Insulin prom inh cell count,RGS16-Gao HTS,GALR2 agonist,HSV replic up,HSV replic up primary fold
Cn1nnnc1SCC(=O)N1CCCc2ccccc21,-3,10,83,102,-2.0,i,0.93
O=C(NCCc1ccccn1)c1ccc(S(=O)(=O)N2CCCCCC2)cc1,-11,19,90,100,-2.6,i,0.9
CN(C)c1cccc2c(C=C(C#N)C#N)ccc(N(C)C)c12,10,34,140,94,-2.0,i,0.96
O=C1C=C(O)CC(c2ccco2)C1 (configuration not stated),-5,23,155,102,-1.3,i,1
Cc1ccc(C(=O)O)c(C(=O)Nc2nc(C)cs2)c1,-2,12,96,105,-0.9,i,0.86
C=CCOc1ccc(C2NC(=S)NC(c3ccccc3)=C2C(C)=O)cc1OC (configuration not stated),-10,-90,109,105,nt,i,1
COC(=O)c1[nH]c2cc(OC)ccc2c1NC(=O)c1ccc2c(c1)OCO2,7,nt,nt,106,-1.9,i,1
CCn1c(C)cc2c(c1=O)C(c1ccccc1)C(C(=O)OC)=C(N)O2 (configuration not stated),-5,32,124,107,-2.4,i,1
CC(=O)C1=C(C)NC(SCC(N)=O)=C(C#N)C1c1sccc1C (configuration not stated),9,30,133,103,-0.9,i,1.1
COCc1cc(C)nc2sc(C(=O)OC(C)C)c(N)c12,-9,71,132,106,0.2,i,0.85
Cc1ccc(C)n1-c1sccc1C(=O)O,-6,-7,150,100,0.2,i,0.99
CCOC(=O)N1CCC(Nc2c(N3CCN(c4cccc(C(F)(F)F)c4)CC3)c(=O)c2=O)CC1,-14,nt,nt,100,-1.1,i,1.1
C/C(=N/N=C1/NC(=O)CC(C(=O)Nc2ccccc2)S1)c1cccs1 (configuration not stated),-3,-3,105,103,-1.2,i,0.94
Cn1c(-c2c(N)n(CCc3ccccc3)c3nc4ccccc4nc23)nc2ccccc21,2,1,75,93,0.2,i,1.2
Cc1c(NC(=O)CSc2ncccn2)c(=O)n(-c2ccccc2)n1C,-6,nt,nt,100,nt,i,0.9
Cc1cc(NC(=O)c2oc3ccccc3c2C)ccc1-n1cnnn1,-1,18,164,96,-0.4,i,0.65
NCCCN1CCOCC1,-4,32,28,103,-1.6,i,0.97
Cc1ccc(C(=O)Nn2c(N)c(S(=O)(=O)c3ccc(C)cc3)c3nc4ccccc4nc32)cc1,5,-47,68,107,-2.8,i,0.8
COc1cc(C=O)ccc1OCCCOc1ccccc1[N+](=O)[O-],-11,33,59,48,-1.4,i,0.8
O=C(O)CNS(=O)(=O)c1ccc2c(c1)CCCC2,0,nt,nt,102,nt,i,1
COc1ccc(C(OC(=O)c2ccco2)C(=O)NC2CCCCC2)cc1OC (configuration not stated),0,3,45,104,-1.1,i,0.97
O=C(CCc1ccccc1)Nc1cccc([N+](=O)[O-])c1,-2,-6,145,101,nt,i,0.95
COc1ccccc1NC(=S)N/N=C/c1cccc(C)c1,8,42,134,105,-1.5,i,0.75
O=C(CS(=O)(=O)Cc1ccccc1)N1CCc2ccccc21,-9,-100,107,104,-0.3,i,0.95
N/C(=N\c1nc2ccccc2o1)NC(=O)c1ccccc1,3,-6,43,104,-2.3,nt,nt
CCOC(=O)c1c(C)[nH]c(C(=O)CSc2nnc(Nc3ccccc3F)s2)c1C,-3,-29,102,59,1.0,i,0.9
O=C(CSc1nnc(-c2ccccc2)c(-c2ccccc2)n1)Nc1ncc(Cl)cc1Cl,6,nt,nt,103,-1.9,?,nt
O=C(Cn1cc(Cl)ccc1=O)c1ccc(Cl)cc1,0,-19,69,113,-1.2,i,1
CNC(=O)CCCCC(=O)N/N=C/c1ccc(Cl)cc1Cl,nt,nt,nt,98,nt,i,0.95
O=C(N/N=C/c1ccco1)c1cccc(S(=O)(=O)Nc2ccccc2Cl)c1,-3,22,62,53,-0.9,i,1
O=C(CC(=O)N/N=C\c1ccc(F)cc1)NCCc1ccccc1,-1,nt,nt,99,nt,i,0.97
C=CCC1S/C(=N/N=C/c2cccs2)NC1=O (configuration not stated),2,7,87,112,nt,i,1
Cc1nn(S(=O)(=O)c2ccccc2)c(C)c1Sc1ccc([N+](=O)[O-])cc1,7,-36,109,102,-0.7,i,0.78
Cc1ccc(C(=O)Cn2nnc(-c3cccs3)n2)cc1,nt,nt,nt,101,nt,i,0.97
CCc1nnc(NC(=O)CSc2nc3[nH]ncc3c(=O)[nH]2)s1,1,nt,nt,101,nt,i,1.2
Oc1ccccc1N=Nc1nc(-c2ccccc2)c(-c2ccccc2)[nH]1,-3,-1,18,104,-1.6,i,0.79
Cn1cc(Cl)c(C(=O)NC2CCCC2)n1,-21,nt,nt,104,0.1,i,0.88
CCN(CC)S(=O)(=O)c1cc(NC(=O)C(C)N2CCc3ccccc32)ccc1C (configuration not stated),-1,nt,nt,103,nt,i,1
O=C(CCNC(=O)Cn1ccc2ccccc2c1=O)NCCN1CCc2ccccc2C1,2,23,87,103,2.4,i,0.95
COc1cccc(C(=O)N(Cc2ccc3c(c2)OCO3)Cc2nc3ccccc3c(=O)[nH]2)c1,-15,nt,nt,100,-0.1,i,0.95
O=C(O)CNS(=O)(=O)c1ccc(-c2ccccc2)cc1,-4,-11,175,97,-1.3,i,0.78
Cc1nc(SCc2c(F)cccc2Cl)n[nH]1,4,41,87,105,-3.4,i,0.94
CCC1=Nc2cc(C(=O)NCCCOC(C)C)ccc2Sc2ccccc21,-3,-110,85,99,-3.2,i,0.97
O=C(NCC1CCCO1)Nc1cccc(Cl)c1 (configuration not stated),-4,-17,131,101,-4.2,i,0.96
COC(=O)C(C)Sc1nnc(Cc2cc(=O)[nH]c(=O)[nH]2)n1-c1ccc(OC)cc1 (configuration not stated),6,nt,nt,99,-3.5,i,0.98
CCOc1ccccc1-n1nnnc1SC(C)C(=O)OC (configuration not stated),-3,nt,nt,101,nt,i,0.98
O=[N+]([O-])c1nn(-c2ccc3c(c2)OCCO3)n(O)c1=NCCC1=CCCCC1,-4,nt,nt,95,nt,i,0.88
CC(Oc1ccccc1)C(=O)Nc1ccc(C(N)=O)cc1 (configuration not stated),-3,-174,99,98,-2.3,i,0.99
CC1CC(C)CN(CCCNC(=O)CC2Oc3ccccc3NC2=O)C1 (configuration not stated),-7,nt,nt,105,-2.1,i,0.95
CCN(c1ccccc1)S(=O)(=O)c1ccc(C(C(=O)OC)C(=O)OC)c([N+](=O)[O-])c1,1,nt,nt,90,nt,i,0.99
O=C1C(Br)=Cc2cccc3cccc1c23,nt,nt,nt,107,nt,i,1.1
CN1CCN(CCCN2c3ccccc3Sc3ccc(Cl)cc32)CC1,-2,-14,94,108&100,1.1,i,0.72&0.54
Cc1cc(NC(=O)CSc2ncnc3c2cnn3-c2cccc(Cl)c2)no1,-4,11,136,97,nt,i,0.96
O=C(c1ccc(-c2ccc([N+](=O)[O-])cc2Cl)o1)N1CCOCC1,10,nt,nt,93,nt,i,0.89
COc1ccc(NC(=O)Nc2ccccc2C)c(OC)c1,-7,nt,nt,99,-1.5,i,0.94
CCn1nc(C)c(NC(=O)CSc2nnc(-c3ccco3)n2C)c1C,5,81*,90*,99,-2.1,i,0.88
CNC(=O)CSc1nnc(CCc2ccccc2)n1-c1ccccc1,-3,47,77,106,-0.8,i,0.77
Cc1cc(C)n2nc(C(=O)N/N=C/c3ccc(Cl)cc3)nc2n1,6,-8,71,111,nt,i,0.93
Cc1ccccc1NC(=S)c1nc2ccccc2[nH]1,-8,97*,87*,119,-1.1,i,0.94
COc1ccccc1N1CCN(CC(=O)Nc2ccc(C)c(F)c2)CC1,-3,nt,nt,118,-2.7,i,0.95
# (next part)
SMILES,PKD1 inh,Insulin prom inh,Insulin prom inh cell count,RGS16-Gao HTS,GALR2 agonist,HSV replic up,HSV replic up primary fold
CO/N=C(/C)CCS(=O)(=O)c1ccccc1,-6,-7,129,100,nt,i,0.94
O=C(OCC(=O)N1CCCc2ccccc21)c1ccc(Br)o1,8,nt,nt,101,-0.3,i,0.95
Cc1ccc(NCCC(=O)c2ccc(Cl)cc2)cc1,8,17,47,92,-3.2,i,1
COC(=O)Nc1sc2c(c1C(N)=O)CCC(C)C2 (configuration not stated),-1,nt,nt,100,nt,i,1
COC(=O)c1ccc2c(=O)n(-c3ccccc3)c(SCN3C(=O)c4ccccc4C3=O)nc2c1,0,3,100,108,-1.0,i,0.94
CCCCCCCN1C=CC(=O)CC1,nt,nt,nt,107,nt,i,0.79
NC(=O)[C@@H]1CCCN1Cc1nc(Cc2ccccc2F)no1,-1,nt,nt,104,nt,i,1.1
C=CC#CC1(O)CC(C)[N+](C)(C)CC1C (configuration not stated),-3,-50,120,99,nt,i,0.96
CCOC(=O)C1(Cc2ccccc2)CCN(Cc2cccc3nccnc23)CC1,-5,nt,nt,101,nt,i,0.93
COc1ccc(NC(=O)c2cc(S(=O)(=O)N(Cc3ccccc3)c3ccccc3)ccc2Cl)cn1,6,-12,112,116,-0.1,i,0.93
CC(=O)OC(Cn1ccnc1)c1ccccc1 (configuration not stated),20,nt,nt,100,-2.0,i,0.87
CN1CCC(N(C)C(=O)Cc2ccccc2[N+](=O)[O-])CC1,-2,nt,nt,97,nt,i,1
CC(/C=C/c1cccc([N+](=O)[O-])c1)=N/NC(=O)c1cccnc1,-8,11,71,113,0.1,i,0.9

# Not a hit list; 1.3% or so of the library scored in one or more.
